Source: PubChem (Sanford-Burnham Center for Chemical Genomics)
HNF4A DNA FP: change in binding of human HNF4A to DNA, primary screen, biochemical, fluorescence polarization, FITC-DNA; Hepatocyte nuclear factor 4-alpha (Homo sapiens), P41235; 1 h; activity change, % at 10 µM; 360,000 tested, 0.3% active; AID 1224865, 2016; in the data active = activity change above about 30%, passing the limit was not always enough;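 note: controls were the assay level and a saturating level of protein; the project sought stronger binding though the title names inhibitors; some compounds called inactive have numbers as strong as hits; positive values seem to mean higher polarization but the record does not say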
Target sequence (P41235 whole entry, looked up): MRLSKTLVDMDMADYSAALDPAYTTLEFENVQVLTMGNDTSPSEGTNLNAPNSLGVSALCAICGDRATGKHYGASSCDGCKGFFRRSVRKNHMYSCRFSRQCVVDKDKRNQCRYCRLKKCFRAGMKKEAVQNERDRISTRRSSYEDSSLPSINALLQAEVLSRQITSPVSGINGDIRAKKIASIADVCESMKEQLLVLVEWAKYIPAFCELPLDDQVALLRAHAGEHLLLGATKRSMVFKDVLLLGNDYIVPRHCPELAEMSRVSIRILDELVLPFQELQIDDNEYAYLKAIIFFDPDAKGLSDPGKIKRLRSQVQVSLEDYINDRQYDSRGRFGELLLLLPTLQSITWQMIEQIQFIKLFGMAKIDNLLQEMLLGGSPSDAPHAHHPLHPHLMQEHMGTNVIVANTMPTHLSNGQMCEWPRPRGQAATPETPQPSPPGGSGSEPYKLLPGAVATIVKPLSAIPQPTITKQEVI
The depositor's hits bear a star. An excerpt; rates above refer to the full screens.

structure | HNF4A DNA FP
CCc1nc2c(OCC(=O)C(C)(C)C)cccn2c1N(C=O)Cc1ccc(OC)cc1 | 1.9
CCc1nc2c(OCc3ccc(OC(F)F)cc3)cccn2c1N(C)C(=O)c1ccc(OC)cc1 | -1.7
O=C(c1cc(C2CCCCN2S(=O)(=O)c2ccc(F)cc2F)on1)N1CCOCC1 (stereo unspecified) | 0.6
O=C(Nc1ccccc1)c1cc(C2CCCN(C(=O)c3ccccc3)C2)on1 (stereo unspecified) | -2.8
Cc1cc(C)c(CN2CCN(C(=O)CC[C@H]3O[C@@H](n4cnc5c(NC(=O)c6ccccc6)ncnc54)[C@H](O)[C@@H]3O)CC2)c(C)c1 | 2.4
CC1(C(=O)NS(=O)(=O)c2cccc(C#N)c2)CCN1C(=O)CC1CCCC1 (stereo unspecified) | -6.2
CC(C)C[C@H]1COc2cccc(N3CCC[C@@H]3CO)c2S(=O)(=O)N1 | 0.5
COc1cccc(C(O)c2nc(-c3ccccc3C)cs2)c1 (stereo unspecified) | -4.2
COC(=O)N1CCC2CC1c1c(Cl)cccc12 (stereo unspecified) | 0.9
CCOC(=O)C1(C)CCCN(C(=O)c2ccc(C#N)cc2)C1 (stereo unspecified) | -3.2
OC[C@H]1O[C@@H](c2nc(-c3ccccc3Br)no2)[C@H](O)[C@@H]1O | -4.6
N#Cc1ccc(OCc2c(-c3ccccc3)nnn2CC(=O)O)cc1 | -0.8
CC(O)(c1cccc(F)c1)c1nc(-c2cc3ccccc3o2)cs1 (stereo unspecified) | -3.0
O=C(NC1CCCCC1)C1c2ccccc2OCC(=O)N1CCc1ccccc1 (stereo unspecified) | 0.5
O=c1cc(CN2CCCCC2)c2c(ccc3ccccc32)o1 | -0.8
CCCCC[C@@H]1CCCCC[C@H](O)C[C@@H](O)[C@@H](O)/C=C/C(=O)O1 | 2.2
COc1ccccc1Cc1c(-c2ccc(F)cc2)nc2cc(C)c(Br)c(C)n12 | 1.4
CCc1nc2ccc(C(=O)N(C)CCCN(C)C)cn2c1N(C)CCCc1ccccc1 | 2.2
COc1ccc(CNC(=O)c2cn(Cc3ccccc3OC)c(=O)s2)cc1 | -2.9
COc1cc(-c2coc3c(C(=O)NCc4cccc(Cl)c4)cccc23)ccc1O | -1.4
Cc1ccccc1-c1cc2nc(NCc3ccccc3)n(C)c(=O)c2s1 | 0.5
CC(C)C[C@H]1CN(CCCC[C@H]2CNC(=O)C(=O)N2CCc2ccccc2)C(=O)C(=O)N1CCc1ccc(O)cc1 | -1.2
CCC(c1nnnn1-c1c(C)cccc1C)N1CCN(c2cccc(C(F)(F)F)n2)CC1 (stereo unspecified) | -1.5
NC(Cc1ccc(Cl)cc1)c1csc(Nc2cc(NCCCO)ncn2)n1 (stereo unspecified) | 2.6
Nc1[nH]c(C(=O)c2ccccc2)c(-c2ccccc2Br)c1C(=O)NCCc1c[nH]c2ccccc12 | 1.8
Nc1cccc(-c2cncc(N3CCN(Cc4ccccn4)CC3)n2)c1 | 0.9
CCCNC(=O)Nc1ccc2c(c1)OC[C@H](C)N(C(=O)C1CCCCC1)C[C@@H](C)[C@H](OC)CN(C)C2=O | 25
CC(C)C[C@@H](CN1CCC[C@H]1CN1C(=O)C(=O)NC[C@@H]1Cc1ccccc1)N1C[C@H](Cc2ccccc2)N(CC2CCCCC2)C(=O)C1=O | -4.7
O=C(NCc1ccco1)C1C(=O)Nc2ccccc2C(=O)N1C1CCCCC1 (stereo unspecified) | 0.3
C[C@@H]1COc2cccc(N3CCN(Cc4ccccc4F)CC3)c2S(=O)(=O)N1 | 1.1
OC[C@@H]1CN(Cc2ccc(Cl)cc2)C[C@H](n2cnc3c(NC4CCCC4)ncnc32)O1 | -3.0
N#Cc1cccc(NC(=O)c2cc(C3CCCCN3S(=O)(=O)c3cccc4cccnc34)on2)c1 (stereo unspecified) | -1.7
COc1ccc(N2C(=O)c3ccccc3NC(=O)C2C(=O)NCc2ccco2)cc1 (stereo unspecified) | -0.7
COc1ccc(Nc2cc(C)nc3ccc(C)cc23)cc1 | 0.6
OC(c1ccc(F)cc1)c1ncc(-c2ccccc2Cl)[nH]1 (stereo unspecified) | -0.5
COc1cc(/C=C/C(=O)OCC(=O)N2CCc3ccccc32)cc(OC)c1OC | 1.6
COc1ccc(NC(=O)c2cc(-c3cc(F)ccc3OC)n[nH]2)c(C)c1 | 0.4
Nc1[nH]c(C(=O)c2ccccc2)c(-c2ccncc2)c1C(=O)NCCc1c[nH]c2ccccc12 | -3.0
O=C1c2ccccc2C(c2nnnn2-c2ccc3ccccc3c2)N1C1CC1 (stereo unspecified) | 0.0
CC1(C(=O)Nc2ccc3c(c2)OCO3)Cc2c(-c3cccc(C(N)=O)c3)ccnc2O1 (stereo unspecified) | -7.2
CC1(C(=O)NS(=O)(=O)c2ccc(F)cc2F)CCN1C(=O)Cc1ccc(-c2ccccc2)cc1 (stereo unspecified) | 3.1
CCCC/C=C/c1cccc2nncn12 | -2.5
CCO/C(C)=N/Oc1cc(OC)cc(OC)c1 | 2.4
Cc1ccc(S(=O)(=O)N2[C@H](CC(=O)OCc3ccccc3)OC[C@@H]2C)cc1 | -2.5
Cc1cccc(C)c1-n1nnnc1C(c1ccnc2ccccc12)N(Cc1ccccc1)Cc1ccccc1 (stereo unspecified) | -0.5
CC1=C(C(=O)N2CCCCCC2)CC(CC(=O)NC2CCCC2)C(=O)N1Cc1ccc(C(C)(C)C)cc1 (stereo unspecified) | -7.0
CC(C)C[C@H](NC(=O)/C=C/[C@H]1O[C@@H](n2ccc(=O)[nH]c2=O)[C@H](O)[C@@H]1O)C(=O)O | 3.0
CC1(C(=O)NCc2cccc3ccccc23)CCN1Cc1ccccc1OC(F)F (stereo unspecified) | 0.9
COc1ccccc1-c1ccc2c(c1)C(C)(Cc1cccc(C#N)c1)C(=O)N2 (stereo unspecified) | 2.5
CCC(c1nnnn1-c1ccc2c(c1)OCCO2)N1CCN(CCN2CCOCC2)CC1 (stereo unspecified) | -5.0
CCCNC(=O)c1cc(C2CCCN(C(=O)c3ccc(NC(C)=O)cc3)C2)on1 (stereo unspecified) | -1.9
COc1cccc(NC(=O)C2(C)CCN2C(=O)Cc2ccc(C(C)C)cc2)c1 (stereo unspecified) | -4.0
COc1ccc(CNC(=O)c2ccc(-c3cnn(C)c3)c3ccoc23)cc1OC | 5.3
COCOCCn1cc(CN2CCS(=O)(=O)N(Cc3ccc(-c4ccc(F)nc4)cc3)C(CC(C)C)C2=O)nn1 (stereo unspecified) | 1.4
O=C(N[C@H]1CC[C@H](CC(=O)N2CCCCC2)O[C@@H]1CO)c1cccc(F)c1 | 2.1
C[C@H](NC(=O)CC[C@H]1O[C@@H](n2ccc(=O)[nH]c2=O)[C@H](O)[C@@H]1O)C(=O)O | 2.3
CCCCCCCCC(c1nc2ccccc2[nH]1)N1CCN=C(c2ccccc2)C1=O (stereo unspecified) | 0.5
CCc1nc2c(OCc3ccccc3C)cccn2c1N(C)C(=O)CC(C)C | -0.3
CCCS(=O)(=O)NC(=O)C1(C)CCCN(C(=O)c2c(F)ccc(C)c2F)C1 (stereo unspecified) | 0.7
FC(F)(F)c1ccccc1Cc1c(-c2ccccc2)nc2c3ccccc3ccn12 | 0.8

Other entries:
structure | HNF4A DNA FP
O=C(NCc1ccccc1)c1cc(C2CCCN(C(=O)C3CCCCC3)C2)on1 (stereo unspecified) | 1.2
Cc1ncc(CO)c(CO)c1OCC(O)CN1CCN(c2ccc(F)cc2)CC1 (stereo unspecified) | -1.9
N#Cc1cccc(C2CC(OCCF)=CC(=O)O2)c1 (stereo unspecified) | -2.2
CCN1CCCSC1=S | -4.4
COc1cccc(Nc2nc(C(N)Cc3ccc(Cl)cc3)cs2)n1 (stereo unspecified) | 1.2
COC(=O)[C@]12CCCCC=C1N(CCC1=CCCCC1)C(=O)[C@H](CC(=O)NCc1ccccc1)C2 | 0.7
CS(=O)(=O)N1CCCCC1c1cc(C(=O)NCc2ccc(F)cc2)no1 (stereo unspecified) | 1.8
CCc1nc2c(OCc3cccc(Cl)c3)cccn2c1N(C)C(C)=O | -1.6
Cn1c(NCc2ccccc2F)nc2cc(-c3cccc(Cl)c3)sc2c1=O | -3.3
CCCCNC(=O)C1(C)CCCCN1C(=O)c1cc(C#N)cs1 (stereo unspecified) | -2.7
Cn1nc(C(C)(C)C)cc1NC(=O)C1(C)CCN1C(=O)CC(c1ccccc1)c1ccccc1 (stereo unspecified) | 5.9
CCc1nc2c(OCCn3cccc3)cccn2c1N(C=O)Cc1ccccc1 | 6.4
CC(=O)Nc1cc(-c2cccc(C(=O)N(C)C)c2)cn2c(-c3cccc(C(F)(F)F)c3)cnc12 | -0.4
COC(=O)[C@@]12C[C@@H](CC(=O)NCc3cccs3)C(=O)N(Cc3ccccc3)C1=CCC(C)(C)C2 | 0.5
CC(C)c1ccc(NC(=O)C2Cc3c(-c4cccc(F)c4)ccnc3O2)cc1 (stereo unspecified) | -0.8
CC1(C(=O)Nc2ccc(Cl)c(C(F)(F)F)c2)Cc2c(-c3ccccc3)ccnc2O1 (stereo unspecified) | 1.8
COc1ccc(-c2cc3nc(NCc4ccc(C)cc4C)n(C)c(=O)c3s2)cc1OC | 6.8
CCCCn1nnnc1C1(C)CCC(=O)N1C1CC1 (stereo unspecified) | 12
COc1ccc(NC(=O)c2sc(=O)n(Cc3ccc(F)c(Cl)c3)c2C)cc1OC | -0.6
CN1CCN(c2ccc(CNC(=O)C3(C)Cc4c(-c5ccc(C(N)=O)cc5)ccnc4O3)cc2)CC1 (stereo unspecified) | 2.5
COc1cc(C)ccc1S(=O)(=O)NC(=O)C1(C)CCN1C(=O)c1ccc(C(F)(F)F)nc1C (stereo unspecified) | -2.2
COc1ccc(NC(=O)c2cc(-c3cc(Cl)ccc3OC)n[nH]2)c(OC)c1 | -0.6
Cc1ccc(C(=O)OCC(=O)Nc2ccc(C)c(S(=O)(=O)N3CCCCC3)c2)c(O)c1 | 1.4
O=C(CC[C@H]1O[C@@H](n2ccc(=O)[nH]c2=O)[C@H](O)[C@@H]1O)N[C@@H](Cc1ccccc1)C(=O)NCC1CCCO1 (stereo partly specified) | 3.6
CCOC(=O)[C@]12CCCC=C1N(CCc1ccc(OC)c(OC)c1)C(=O)[C@H](CC(=O)NCc1ccccc1)C2 | 1.1
C[C@@H]1CN([C@H](C)CO)S(=O)(=O)c2ccc(C#CC3CCCCC3)cc2O[C@H]1CN(C)C(=O)Cc1ccncc1 | 19
CC(C)(O)C#Cc1ccc(N2C(c3ccsc3)=Cc3ccc(F)cc3C2c2c[nH]c3ccccc23)cc1 (stereo unspecified) | 0.8
C[C@H](CO)N1C[C@H](C)[C@@H](CN(C)C(=O)C2CC2)OCc2cnnn2CCCC1=O | 2.0
CCCC(=O)N1CCC1(C)C(=O)Nc1ncc(C(=O)OC)s1 (stereo unspecified) | 1.1
CC1C(=O)N(Cc2cn(CC3CCCCC3)nn2)CCS(=O)(=O)N1Cc1ccc(-c2cccc(N(C)C)c2)cc1 (stereo unspecified) | -0.7
Cc1ccc(S(=O)(=O)N2[C@H](CC(=O)c3ccccc3)OC[C@@H]2C)cc1 | 2.4
CCCCn1nnnc1C(c1cc2ccccc2o1)N1CCCN(C(=O)OC(C)(C)C)CC1 (stereo unspecified) | 3.2
CC(=O)Nc1cccc(-c2ccnc3c2CC(C)(C(=O)NCc2cccs2)O3)c1 (stereo unspecified) | 1.3
CCCNC(=O)c1cc2c(c(-c3cccc(-c4ccc(F)cc4)c3)n1)[C@H](CCO)N(S(=O)C(C)(C)C)C2 (stereo partly specified) | 0.4
CC1(C(=O)Nc2cnc3ccccc3c2)CCN1Cc1ccc2c(c1)OCCO2 (stereo unspecified) | -1.9
O=C(Nc1c(-c2ccccc2)[nH][nH]c1=O)c1ccc2ccccc2c1 | -6.6
CNc1cncc(-c2cccc(OC)c2F)n1 | -1.4
CC(C)(C)c1ccc(C(=O)N2CCC2(C)C(=O)NCc2cccc3ccccc23)cc1 (stereo unspecified) | 4.0
CC(=O)c1cccc(-c2ccnc3c2CC(C(=O)Nc2cccnc2)O3)c1 (stereo unspecified) | 2.7
CC(C)CCN1C(=O)c2ccccc2C1c1nnnn1-c1ccc2c(c1)OCCO2 (stereo unspecified) | 3.6
CCOc1ccc(CCN2C(=O)C(=O)N([C@@H](Cc3ccccc3)CN3CCC[C@H]3CN3C(=O)C(=O)NC[C@@H]3Cc3ccccc3)C[C@@H]2Cc2ccc(O)cc2)cc1 | 1.9
COc1cc(/C=C/C(=O)OCC(=O)N2CC(C)OC(C)C2)ccc1OCC#N (stereo unspecified) | 0.9
CC(C)Nc1nc(-c2ccccc2CO)c2sccc2n1 | -4.4
NC(CO)c1csc(Nc2ccc(C(=O)c3ccccc3)cc2)n1 (stereo unspecified) | 3.8

As entered above.
Value of CC(C)(C)c1ccc(C(=O)N2CCC2(C)C(=O)NCc2cccc3ccccc23)cc1 (stereo unspecified) under HNF4A DNA FP: 4.0
Value of CCCCn1nnnc1C(c1cc2ccccc2o1)N1CCCN(C(=O)OC(C)(C)C)CC1 (stereo unspecified) under HNF4A DNA FP: 3.2

Some of these compounds in order of heavy-atom count, falling:
structure | HNF4A DNA FP
CCOc1ccc(CCN2C(=O)C(=O)N([C@@H](Cc3ccccc3)CN3CCC[C@H]3CN3C(=O)C(=O)NC[C@@H]3Cc3ccccc3)C[C@@H]2Cc2ccc(O)cc2)cc1 | 1.9
CCCCn1nnnc1C(c1cc2ccccc2o1)N1CCCN(C(=O)OC(C)(C)C)CC1 (stereo unspecified) | 3.2
CC(=O)Nc1cccc(-c2ccnc3c2CC(C)(C(=O)NCc2cccs2)O3)c1 (stereo unspecified) | 1.3
COc1cc(/C=C/C(=O)OCC(=O)N2CC(C)OC(C)C2)ccc1OCC#N (stereo unspecified) | 0.9
CC(=O)c1cccc(-c2ccnc3c2CC(C(=O)Nc2cccnc2)O3)c1 (stereo unspecified) | 2.7
CC(C)Nc1nc(-c2ccccc2CO)c2sccc2n1 | -4.4
CNc1cncc(-c2cccc(OC)c2F)n1 | -1.4
